Screening results deposited in PubChem BioAssay by several laboratories.
eIF4H FP inh = human eIF4H binding inhibitors, primary screen, translation initiation inhibitor project, biochemical, uHTS, fluorescence polarization; Eukaryotic translation initiation factor 4H (Homo sapiens), Q15056; eIF4H fluorescence polarization binding assay; inhibition, % at 35 µM; 290,000 tested, 0.94% active;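 active = 50% or more with normal probe brightness, or confirmed in later tests; inconclusive = above 50% with abnormal brightness, or retests that disagree; inactive = below 50% or failed in later tests; about a fifth of its hits are not listed in these tables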;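 also: calls also rest on retests at 20 µM and on dose response follow-up; 0% = protein and probe with vehicle and 100% = probe without protein; strong numbers were not always called active; many hits fall short of the cut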
PABP FP inh = PABP poly(A) RNA binding inhibitors, primary screen, biochemical, fluorescence polarization, uHTS; inhibition, % at 35 µM; 290,000 tested, 1% active; AID 2014, 2009;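 active = 50% or more with normal probe brightness, or confirmed in later tests; inconclusive = above 50% with abnormal brightness, or retests that disagree; inactive = below 50% or failed in later tests; about a fifth of its hits are not listed in these tables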;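 also: calls also rest on retests at 20 µM and on dose response follow-up; controls were probe without protein and protein plus probe with vehicle; some compounds called inactive have numbers as strong as hits; many hits fall short of the cut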
Target sequence (P11940 whole entry, looked up): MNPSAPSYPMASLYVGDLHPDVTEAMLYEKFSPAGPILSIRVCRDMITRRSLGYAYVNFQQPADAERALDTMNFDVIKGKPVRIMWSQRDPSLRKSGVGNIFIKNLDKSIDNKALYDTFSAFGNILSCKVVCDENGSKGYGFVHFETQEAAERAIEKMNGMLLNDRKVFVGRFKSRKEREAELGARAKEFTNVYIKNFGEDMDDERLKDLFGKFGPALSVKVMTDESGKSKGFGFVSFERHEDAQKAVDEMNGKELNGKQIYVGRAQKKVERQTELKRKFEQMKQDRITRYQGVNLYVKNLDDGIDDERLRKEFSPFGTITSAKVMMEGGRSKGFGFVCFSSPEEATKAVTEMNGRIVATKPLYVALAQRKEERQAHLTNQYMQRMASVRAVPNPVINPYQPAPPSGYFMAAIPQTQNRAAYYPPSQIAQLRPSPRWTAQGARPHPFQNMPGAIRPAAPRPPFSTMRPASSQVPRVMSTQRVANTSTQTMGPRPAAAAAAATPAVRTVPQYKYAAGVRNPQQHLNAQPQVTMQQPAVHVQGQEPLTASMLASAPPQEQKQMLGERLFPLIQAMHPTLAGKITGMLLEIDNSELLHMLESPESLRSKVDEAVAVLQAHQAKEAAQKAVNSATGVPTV
Rce1 inh = yeast Rce1p protease inhibitors, primary screen, biochemical, fluorescence, cell-free homogeneous; calls only; AID 2563, 2010; yeast membranes, quenched prenylated peptide cleavage fluorescence; 290,000 tested, 0.27% active;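 active = fall in fluorescence gain of 50% or more versus controls, with final raw signal at or below 3038400; inconclusive = same 50% fall but final raw signal above 3038400; inactive = fall in fluorescence gain under 50%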;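 also: plate controls were neutral control wells for no effect and wells lacking membranes for full effect; tested at 10 µM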
Target sequence (Q03530 whole entry, looked up): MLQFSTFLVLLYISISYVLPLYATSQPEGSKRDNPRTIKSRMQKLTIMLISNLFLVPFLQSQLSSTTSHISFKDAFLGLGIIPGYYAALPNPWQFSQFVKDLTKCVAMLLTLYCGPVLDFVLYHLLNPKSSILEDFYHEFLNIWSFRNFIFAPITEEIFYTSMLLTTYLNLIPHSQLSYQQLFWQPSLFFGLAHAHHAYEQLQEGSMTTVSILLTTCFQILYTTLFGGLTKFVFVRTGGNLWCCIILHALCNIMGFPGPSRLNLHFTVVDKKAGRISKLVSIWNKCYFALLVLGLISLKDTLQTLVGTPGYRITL
UUG fidelity = modulators of yeast start codon fidelity, primary screen, whole organism, S. cerevisiae, single point, plate reader; S. cerevisiae UUG-firefly luciferase reporter, luminescence/redox ratio; activity score, % at 18.7 µM; 350,000 tested, 0.13% active;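 active = replicate mean at a twofold rise or more, about +100% in these data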;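 also: firefly luciferase made from a UUG start codon reports start codon fidelity; reporter light over untreated wells divided by growth signal over untreated wells; some hits fall short of that in this replicate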
MT1-MMP act inh = blockers of MT1-MMP proenzyme processing, primary screen, HT1080 RFP-PRO-GFP cells, GFP/RFP fluorescence. Matrix metalloproteinase-14 (Homo sapiens), P50281. GFP/RFP ratio fluorescence, overnight; percent of plate control window, DMSO zero. GFP/RFP ratio change, % at 20 µM. 360,000 tested, 0.061% active. AID 651647, 2012;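 active = GFP/RFP ratio change of at least 30% with cell ATP level not reduced by more than half and red fluorescence within 50% of control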; also: strong numbers were not always called active
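Assay system: HT1080 RFP-PRO-GFP cells | Dosing: 20 µM single dose, 1% DMSO | Incubation: Cells overnight before dosing, compound overnight, 37 °C, 5% CO2 | Evaluation: GFP/RFP fluorescence ratio | Control set: DMSO-only wells and HT1080 RFP-L50D-GFP cell wells as references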
CSC inhib = cancer stem cell viability inhibitors, primary screen, luminescence | 300,000 tested, 1.1% active | AID 2717, 2010 | cancer stem cell-like cells viability | inhibition, % at 7.5 µM;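 active = mean at 75% or more and at least half the replicates too; inconclusive = mean and replicates disagree; tested in HMLE shEcad cells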;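 also: 0% = median of negative and 100% = median of positive control wells; the first replicate is given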
Env fusion inh = inhibitors of HIV-1 Env-driven cell-cell fusion, primary screen, HeLa-JRFL effector, CEM21 target cells, luciferase; inhibition, % at 12.3 µM; 360,000 tested, 1.1% active; AID 651610, 2012;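 active = mean replicate inhibition score of at least 50 and every replicate individually at or above 50; inconclusive = only one of the two criteria met; inactive = mean below 50 and not all replicates reaching 50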;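 also: 0% = plate neutral controls and 100% = maraviroc near 300 nM; one replicate is shown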
MT1-MMP act inh RFP = second read-out of MT1-MMP act inh, no call of its own (marks repeat the call); RFP signal change, %; measured here: RFP expression control read;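 0 = vehicle wells; hits needed this value within 50% of zero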
* = called active by the depositor; i = inactive; ? = inconclusive; · = no result given. Not all compounds are listed; the hit share may differ from the screen's.

SMILES	eIF4H FP inh	PABP FP inh	Rce1 inh	UUG fidelity	MT1-MMP act inh	MT1-MMP act inh RFP	CSC inhib	Env fusion inh
CC(=O)N1CCCc2cc(S(=O)(=O)CCC(=O)N3CCN(c4cccc(C)c4)C(C)C3)ccc21 (centres undefined)	-6	-6	i	10	0	-6	-10	21
COC(=O)c1cn(CC(=O)Nc2ccc(F)cc2)c2ccccc12	2	-9	i	-9	5	1	24	-2
COc1cccc(N(C(=O)CNC(=O)c2ccco2)C(C(=O)NC2CCCCC2)c2cccnc2)c1 (centres undefined)	1	10	i	-15	7	8	-9	28
Cc1ccsc1/C=N\Nc1cn[nH]c(=O)c1Cl	6	5	i	·	8	7	·	56*
CC(C)Cn1c(N)cc(=O)n(C)c1=O	3	-5	i	5	0	5	-7	6
Cc1ccnc(NC(=O)CCS(=O)(=O)c2ccccc2)c1	29	12	·	-14	2	2	-8	-11
CSc1nc2nc(-c3ccccc3)cc(=O)n2[nH]1	-3	17	i	-12	1	2	-12	·
CCCCc1cn([C@@H](CCCCN)C(=O)N2CCNCC2)nn1	?	?	i	28	-7	5	0	14
CN1N=C(C(=O)N2CCCC(Nc3ccc(F)c(F)c3)C2)CCC1=O (centres undefined)	-5	6	·	4	1	1	-16	11
Cn1c(-c2ccc(C=O)s2)nc2ccccc21	-6	-12	i	·	3	5	-7	·
COc1cc(C(=O)OCCC(C)C)cc(OC)c1O	-1	5	i	11	-3	1	23	9
O=C(CN1CCOc2ccccc21)N1CCCC1	-4	9	i	-15	0	6	-15	0
COc1cc(OC)cc(C(=O)NCCNc2nc3cc(C)cc(C)c3cc2C#N)c1	4	-3	i	-6	-3	-2	77*	24
Clc1ccc(Cn2ncc3c(NCCN4CCOCC4)ncnc32)cc1	-4	-3	i	-9	-2	-9	-1	·
O=[N+]([O-])c1ccccc1OCC(O)CNC1CCCC1 (centres undefined)	7	-1	i	·	5	4	-9	-1
Cc1cc2cc(C(c3nnnn3CC3CCCO3)N3CCCc4ccccc43)c(=O)[nH]c2cc1C (centres undefined)	20	24	i	-34	-26	-17	·	-69
CN(Cc1ccccc1)C(=O)C1CCC(CNS(=O)(=O)c2cccc3cccnc23)CC1 (centres undefined)	4	6	i	·	-6	-6	·	-35
CC(=O)Nc1cccc(NC(=O)C2CCCN2C(=O)Nc2ccccc2C)c1 (centres undefined)	40	6	i	-1	0	3	-10	-40
COc1ccc(C(=O)Nc2cc(-c3nn4c(C)nnc4s3)ccc2C)cc1	-2	-3	i	-16	2	3	5	-15
O=C(CCc1nc2ccccc2c(=O)[nH]1)Nc1nnc(SCc2ccc(F)cc2)s1	·	·	i	·	-2	0	-12	0
C=CCOC(=O)Nc1ccc(Cl)cc1NC(=O)OCC=C	0	-3	i	-12	7	4	6	-80
COc1ccc(N2C(=O)CC(N(CCc3ccc(OC)c(OC)c3)C(=S)Nc3ccccc3)C2=O)cc1 (centres undefined)	1	-10	i	·	10	1	·	?
O=C(COC(=O)Cn1cnc2ccccc21)NCc1ccc(F)cc1	-2	6	i	·	1	3	-5	1
CCN(CC)C(=O)CSc1nc2cc3c(cc2c(=O)n1Cc1ccc2c(c1)OCO2)OCO3	-3	8	i	·	-1	0	-16	20
CN(C)c1ccc(N/C=C/C(=O)C(F)(F)F)cc1	4	-5	i	·	0	8	-1	-14
Next section
SMILES	eIF4H FP inh	PABP FP inh	Rce1 inh	UUG fidelity	MT1-MMP act inh	MT1-MMP act inh RFP	CSC inhib	Env fusion inh
CCOc1ccc(S(=O)(=O)NCc2cccs2)cc1	-2	-1	i	-18	4	2	0	-5
CC1(C(=O)NS(=O)(=O)c2ccc(Br)cc2)CCN1C(=O)Cc1cccs1 (centres undefined)	·	·	·	-4	6	9	·	12
CCOC(=O)c1c(C)[nH]c(C(=O)OCC(=O)N(C)CC(=O)Nc2ccccc2Cl)c1C	·	·	·	-7	3	1	4	·
Cc1c(C2OC(=O)C3(CCCCC3)C(=O)C2(C)C)c(=O)n(-c2ccccc2)n1C (centres undefined)	-7	-10	·	-12	4	4	0	-56
O=C(NCCN1CCNC1=O)C1CCC(=O)N(Cc2ccccc2F)C1 (centres undefined)	-13	-1	i	-11	-2	6	6	7
O=C(O)c1c(-c2ccccc2)cnc2ccccc12	·	·	·	-2	4	-4	·	11
O=C(Nc1ccc2c(c1)OCO2)c1cnn2c(C(F)(F)F)cc(-c3ccco3)nc12	-6	9	·	-12	1	-2	8	·
COCCNC(=O)C1(C)CCCN(Cc2ccc3ccccc3c2Br)C1 (centres undefined)	·	·	·	1	8	1	·	?
CCC(=O)N1CCC1(C)C(=O)Nc1cccc(OC)c1OC (centres undefined)	·	·	·	-13	1	5	·	58*
CC(C)C[C@H]1CN=C(Nc2ccccc2)N1CCC(C)c1ccccc1 (some centres undefined)	·	·	·	17	-2	-3	18	-13
O=C(O)c1ccc(N/N=C/C2=C(N3CCOCC3)C(=C\c3ccccc3)/CC2)cc1	6	3	i	-21	-5	3	6	6
COc1ccccc1NS(=O)(=O)c1ccc(C(=O)NCC(c2ccccc2OC)N2CCCC2)cc1 (centres undefined)	·	·	·	-3	-2	3	·	6
CC1=C(C(=O)N(C)C)CC(CC(=O)NC2CCCCC2)C(=O)N1Cc1ccccc1 (centres undefined)	·	·	·	-1	3	6	·	2
CN1c2ccccc2C(C)(C)[C@]12C=Cc1cc(O)ccc1O2	12	2	·	-16	50	68	-11	·
CCOC(=O)CC1C(=O)NCCN1S(=O)(=O)c1cc(Cl)c(Cl)cc1Cl (centres undefined)	6	-8	·	14	9	5	-23	-102
Nn1c(-c2cccs2)nc2sc3c(c2c1=O)CCCC3	-10	-28	i	-21	-7	-5	9	·
CC1CCCN(c2ccc(C(=O)NCCc3ccccc3)cn2)C1 (centres undefined)	-1	11	·	-13	10	-3	26	·
COc1cc(Cl)c(S(=O)(=O)NCc2cccnc2)cc1Cl	4	-5	i	-15	-1	0	-23	·
CCOc1cccc(C2C(C(=O)c3ccc(C)o3)=C(O)C(=O)N2c2nccs2)c1 (centres undefined)	?	?	i	-7	-19	5	10	25
Nn1c(SCC(=O)Nc2nccs2)nnc1-c1ccccn1	·	·	i	-8	-3	1	-6	-1
O=C(C1=NNCC1c1ccccc1)C1OC1c1ccccc1 (centres undefined)	-9	-5	i	·	1	3	1	11
O=C(Cc1ccc(-c2ccccc2)cc1)N1CCOCC1	2	-2	i	-10	1	2	·	·
O=C(CCN1C(=O)/C(=C\C=C\c2ccccc2)SC1=S)Nc1cccc(C(=O)O)c1	88*	78*	i	-4	4	7	20	-63
COc1ccc([C@H]2C[C@@H](O)[C@H](n3cc(C4CC4)nn3)CN2Cc2cccs2)cc1	·	·	·	14	3	4	·	1
COc1ccc(NC(=O)N2CC(C)OC(C)C2)cc1OC (centres undefined)	5	12	i	-16	9	6	-5	-53

An excerpt from above, limited to CSC inhib.
canonical_smiles	CSC inhib
CCOc1cccc(C2C(C(=O)c3ccc(C)o3)=C(O)C(=O)N2c2nccs2)c1 (centres undefined)	10
CCOC(=O)c1c(C)[nH]c(C(=O)OCC(=O)N(C)CC(=O)Nc2ccccc2Cl)c1C	4

(next part)
SMILES	eIF4H FP inh	PABP FP inh	Rce1 inh	UUG fidelity	MT1-MMP act inh	MT1-MMP act inh RFP	CSC inhib	Env fusion inh
C/C(CCN1CCCCc2nc(C)c(C)cc21)=N\O[C@@H](C)CN1CCCCc2nc(C)c(C)cc21	3	-6	i	·	·	·	30	·
c1ccc(CN2C3=NCCN3c3ccccc32)cc1	6	4	i	-13	4	10	13	-28
O=C(CN1C(=O)CSC1=O)Nc1ccc2c(c1)OCCO2	4	-6	i	-19	-2	4	-1	8
COc1ccc(-c2noc(-c3csc([C@@H]4O[C@H](CO)[C@H](O)[C@H](O)[C@H]4O)n3)n2)cc1OC	·	·	·	-18	-1	4	·	-4
CN(C)S(=O)(=O)c1cccc(NC(=O)CCc2c[nH]c3ccccc23)c1	8	5	i	·	-10	-8	-13	-10
CS(=O)(=O)N1CCN(c2ccc(C(=O)NC3C4CC5CC(C4)CC3C5)cc2[N+](=O)[O-])CC1 (centres undefined)	-4	4	i	-10	-6	-4	-3	8
Cc1onc(-c2c(F)cccc2Cl)c1C(=O)NC(=S)NCc1cccnc1	1	5	i	·	-11	-1	·	18
CCCCC[n+]1ccn(C2=C([O-])c3ccccc3C(=O)/C2=N\S(=O)(=O)c2ccc(Br)cc2)c1	-12	0	i	-16	6	4	29	-21
COC(=O)c1cn(NC(=O)c2cc(OC)cc(OC)c2)c(=O)c2ccccc12	-3	2	i	-2	-7	-2	·	-102
COc1cc2c(cc1OC)C(C)N(C(=O)Cn1ncc3c1-c1ccccc1OC3)CC2 (centres undefined)	-7	-19	i	-19	-2	-8	-6	4
Cc1ccsc1C(=O)OCC(=O)NC1CCCCC1	·	·	·	-16	4	-3	·	-48
CCN(c1ccc(NC(=O)COC(=O)c2ccc([N+](=O)[O-])o2)cc1)C(C)C	·	·	·	1	3	2	0	·
Cc1csc(NC(=O)CSc2nc3ccccc3c(=O)[nH]2)n1	-3	0	i	-20	3	5	·	3
COc1cc(N)c(Cl)cc1NC(=O)c1ccccc1	4	4	i	-6	4	-5	-5	-44

4 of these compounds in another layout:
molecule: COc1cc(N)c(Cl)cc1NC(=O)c1ccccc1
- eIF4H FP inh = 4
- PABP FP inh = 4
- Rce1 inh = i
- UUG fidelity = -6
- MT1-MMP act inh = 4
- MT1-MMP act inh RFP = -5
- CSC inhib = -5
- Env fusion inh = -44

molecule: CS(=O)(=O)N1CCN(c2ccc(C(=O)NC3C4CC5CC(C4)CC3C5)cc2[N+](=O)[O-])CC1 (centres undefined)
- eIF4H FP inh = -4
- PABP FP inh = 4
- Rce1 inh = i
- UUG fidelity = -10
- MT1-MMP act inh = -6
- MT1-MMP act inh RFP = -4
- CSC inhib = -3
- Env fusion inh = 8

molecule: CCCCC[n+]1ccn(C2=C([O-])c3ccccc3C(=O)/C2=N\S(=O)(=O)c2ccc(Br)cc2)c1
- eIF4H FP inh = -12
- PABP FP inh = 0
- Rce1 inh = i
- UUG fidelity = -16
- MT1-MMP act inh = 6
- MT1-MMP act inh RFP = 4
- CSC inhib = 29
- Env fusion inh = -21

molecule: CCN(c1ccc(NC(=O)COC(=O)c2ccc([N+](=O)[O-])o2)cc1)C(C)C
- eIF4H FP inh = ·
- PABP FP inh = ·
- Rce1 inh = ·
- UUG fidelity = 1
- MT1-MMP act inh = 3
- MT1-MMP act inh RFP = 2
- CSC inhib = 0
- Env fusion inh = ·
